# Bioassay records: PubChem BioAssay, several laboratories
# Beta cell apopt = blocks beta cell apoptosis; protection from apoptosis, % (test concentration not listed); INS-1E cytokine-induced death, ATP luminescence, 48 h; percent of positive-control rescue, neutral wells zero; AID 435005; actives 0.8% (n = 300,000);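 active = all replicates at 75% or more, or half of them and the mean; inconclusive = half reach 75% but not the mean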;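 note: 0% = cytokine-treated negative control wells and 100% = positive control rescue; higher means more ATP so stronger rescue from cytokine killing; wells of about 40 µL received 100 nL stock; the first replicate is given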
# A1 inh = inhibitors of the anti-apoptotic protein A1, read as caspase activation; MEF A1-2A-BIM cells, Caspase-Glo 3/7 luminescence, 3 h; percent of clofoctol response, vehicle zero; caspase activation, % (no concentration beside the values); actives 0.066% (n = 330,000); AID 2462;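 active = over half of replicate activation scores above 10%, or exactly half above 10 with the replicate mean above 10; inconclusive = replicate mean below 10 yet half the replicates above 10; inactive = over half of replicates below 10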;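 note: wells of about 30 µL received 50 nL stock; many hits fall short of the cut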
# Calb FLC = C. albicans growth modulation with fluconazole. C. albicans CaCi-2 (fluconazole-resistant clinical isolate) + fluconazole, Alamar Blue growth, 48 h. actives 0.57% (n = 300,000). growth inhibition, % (concentration not given with the values);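 active = most replicates above 75%; inconclusive = exactly half above 75%; inactive = most below 75%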;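 note: all wells also contain fluconazole at 8 µg/ml as a sub-toxic cotreatment; 0% = median of DMSO wells and 100% = median of geldanamycin control wells; wells of about 8 µL received 7.5 nL stock; the first replicate is given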
# Beta2AR agonist = activates human beta-2 adrenergic receptor causing internalization; P07550; actives 0.43% (n = 340,000); response, % (no concentration beside the values); Am2.2-beta2AR cells, FAP receptor internalization, flow cytometry; reference of the scale not given here; AID 504454;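 active = response above a set limit, near 3 SD of response in nonfluorescent compounds, cut at about 42% in these data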;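 note: stock transfer was 100 nL into about 11 µL; a reference agonist was the positive control; negative values mostly stem from fluorescent compounds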
# RanGTP-Impb inh = disruptors of Ran-importin-beta complex formation – biochemical, FRET, CFP-Ran, YFP-importin-beta, homogeneous, primary screen; cell-free CFP-Ran/YFP-importin-beta FRET ratio; inhibition, % (test concentration not listed); actives 1.1% (n = 300,000); AID 2216;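 active = most replicates above 15%; inconclusive = exactly half above 15%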;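 note: 0% = DMSO wells and 100% = Ran loaded with GDP instead of GTP; wells of about 40 µL received 100 nL stock; the first replicate is given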
# T cruzi inh = T. cruzi replication inhibition. T. cruzi beta-gal in NIH3T3, luminescence, 90 h. inhibition, % (no concentration beside the values). actives 1.4% (n = 300,000). AID 1885;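 active = mean inhibition across valid replicates above about 55%, limit read from the data; inconclusive = mean below that limit but half or more replicates reach it; inactive = mean below it, under half of replicates reach it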;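 note: signal also drops with host cell toxicity which is not excluded here; 0% = plate median of DMSO wells and 100% = zero luminescence signal; higher percent means less beta-gal luminescence so fewer parasites; stock transfer was 50 nL into about 50 µL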
# LANA-H2B inh = blocks KSHV LANA binding to histone H2A/H2B | cell-free LANA-H2A/H2B peptide, fluorescence polarization | inhibition, % (test concentration not listed) | actives 0.6% (n = 320,000) | AID 2629; in the data active = inhibition mostly above about 10%, no sharp cut-off; inactive = mostly below about 6.7%;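 note: stock transfer was 7.5 nL into about 10 µL; 0% = median of vehicle wells and 100% = median of positive control wells; one replicate is shown; the record names a cut of 25% in any replicate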
# Target sequence (Q9QR71 whole entry, looked up): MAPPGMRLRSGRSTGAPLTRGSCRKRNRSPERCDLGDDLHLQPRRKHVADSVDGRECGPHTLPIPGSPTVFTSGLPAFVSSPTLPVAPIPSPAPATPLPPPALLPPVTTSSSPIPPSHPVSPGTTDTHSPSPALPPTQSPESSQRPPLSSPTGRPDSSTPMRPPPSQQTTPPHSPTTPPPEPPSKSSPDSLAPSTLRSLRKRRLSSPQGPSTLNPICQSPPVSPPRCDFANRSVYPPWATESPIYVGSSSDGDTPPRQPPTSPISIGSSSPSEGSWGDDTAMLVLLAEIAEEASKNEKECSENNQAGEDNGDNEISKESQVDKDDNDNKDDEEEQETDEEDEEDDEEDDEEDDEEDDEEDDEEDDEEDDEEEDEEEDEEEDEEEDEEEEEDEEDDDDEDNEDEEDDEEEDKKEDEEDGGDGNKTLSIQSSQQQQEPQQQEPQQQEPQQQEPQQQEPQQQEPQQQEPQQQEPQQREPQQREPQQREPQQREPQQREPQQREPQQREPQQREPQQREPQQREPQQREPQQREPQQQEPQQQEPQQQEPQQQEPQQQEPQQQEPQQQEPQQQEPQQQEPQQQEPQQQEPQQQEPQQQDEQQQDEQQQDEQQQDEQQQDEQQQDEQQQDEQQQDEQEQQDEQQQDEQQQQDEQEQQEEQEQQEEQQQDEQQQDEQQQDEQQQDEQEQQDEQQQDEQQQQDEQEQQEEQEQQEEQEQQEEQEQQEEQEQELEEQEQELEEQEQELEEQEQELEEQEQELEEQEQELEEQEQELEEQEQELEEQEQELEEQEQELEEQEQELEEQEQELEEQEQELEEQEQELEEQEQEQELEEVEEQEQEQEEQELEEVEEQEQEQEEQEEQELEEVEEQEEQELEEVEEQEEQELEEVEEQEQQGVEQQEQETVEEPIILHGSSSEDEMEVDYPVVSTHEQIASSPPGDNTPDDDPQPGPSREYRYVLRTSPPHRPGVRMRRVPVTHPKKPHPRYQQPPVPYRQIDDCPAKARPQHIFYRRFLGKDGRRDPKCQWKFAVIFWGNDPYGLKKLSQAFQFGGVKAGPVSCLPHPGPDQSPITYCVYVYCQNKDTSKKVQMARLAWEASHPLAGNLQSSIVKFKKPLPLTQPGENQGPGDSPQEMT
# UCH37 DUB inh = human UCH37 deubiquitinating enzyme inhibition; purified proteasome/UCH37, Ub-AMC cleavage fluorescence; actives 0.33% (n = 330,000); inhibition, % (concentration not given with the values); Q9Y5K5;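 active = mean of two replicates above 20%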;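 note: 0% = compound-free wells with enzyme and 100% = wells lacking proteasome; stock transfer was 100 nL into about 20 µL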
#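 System: Proteasome-associated human UCH37 deubiquitinase; Input: 0.15 nM proteasome in added enzyme buffer; Also added: Ub-AMC substrate from 1 µM stock; Incubation: 30 min compound-proteasome preincubation then 25 min substrate reaction, room temperature; Detection: fluorescence, ex 355 nm, em 460 nm; Read-out: % inhibition of Ub-AMC cleavage fluorescence; Benchmarks: no-proteasome and no-compound wells.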
# Numbers without * were called inactive; u = inconclusive; x = no result given.
no.	canonical_smiles	Beta cell apopt	A1 inh	Calb FLC	Beta2AR agonist	RanGTP-Impb inh	T cruzi inh	LANA-H2B inh	UCH37 DUB inh
1	Cc1cc(NC(=O)CN2C(=O)NC3(CCC(C)CC3)C2=O)no1 (stereo not given)	-2.6	0.5	-3.6	3.3	u	-6.2	8.5	5.2
2	Nc1nccc(/C=C/c2c(F)cccc2Cl)n1	-8.0	-0.7	15.6	-0.6	7.9	6.5	-16.5	-96.3
3	O=C(CN1C(=O)C2C3CCC(C3)C2C1=O)OCC(=O)c1ccccc1 (stereo not given)	-4.2	-0.6	1.5	-5.6	-3.0	-9.3	-1.8	0.7
4	O=C(CS(=O)(=O)c1cn(CC(=O)N2CCCC2)c2ccccc12)Nc1ccccc1	3.5	-0.9	-5.4	-4.7	1.9	1.1	1.9	1.6
5	Nc1c(C(=O)Nc2ccc3c(c2)OCCO3)nnn1Cc1ccc(F)cc1	-8.4	-0.9	-1.8	-1.0	-6.2	-7.1	2.7	-6.5
6	COc1ccc(C(=O)Cc2nnc(C)s2)c(OC)c1	-19.1	0.1	-0.4	-3.8	-0.4	-7.2	0.9	6.8
7	CCN1CNC(=S)N(c2ccccc2OC)C1	-9.6	-0.8	0.4	5.2	-0.6	-18.6	0.4	2.0
8	CC1(C)CC(=O)c2cnc(N3CCN(c4ccccc4)CC3)nc2C1	1.4	0.1	-3.3	-4.0	4.9	5.3	-6.9	-1.1
9	Cc1c(-c2ccccc2)cn2c1-c1ccc(C)n1CC2	-2.4	1.0	-18.4	-58.8	-2.3	-19.0	0.2	-16.2
10	Cc1ccc(CNC(=O)Nc2ccc3c(c2)N(C)C(=O)CS3)cc1	7.4	0.2	1.7	-2.6	0.3	2.3	-1.5	2.5
11	CC(C)(C)S(=O)c1cccs1 (stereo not given)	-1.8	-0.8	-0.9	-3.5	u	7.7	-2.0	1.4
12	CCC(=O)NCCNc1ccc([N+](=O)[O-])cn1	-12.1	0.2	2.6	x	u	-1.3	2.1	13.5
13	O=C(CN1C(=O)C2CC=CCC2C1=O)Nc1ccccc1N1CCCC1 (stereo not given)	-8.0	0.9	-3.5	-4.8	1.8	-2.8	-1.8	1.5
14	CCOc1ccc(N2C(=O)CSC23CCCCC3)cc1	2.3	1.2	1.8	0.0	-5.0	2.8	1.8	-1.2
15	Cc1cc(F)ccc1S(=O)(=O)N1CCCOC1CNC(=O)C(=O)NC1CCCC1 (stereo not given)	3.5	-0.5	-4.3	10.2	0.7	-4.9	-0.2	x
16	COc1ccc(C(=O)N2CC(=O)Nc3ccc(C)cc3C2c2ccccc2)cc1 (stereo not given)	x	x	-12.8	0.5	-0.1	-5.0	x	4.5
17	O=C(N/C(=C/c1ccc(Cl)cc1)C(=O)N1CCCC1)c1ccccc1	-5.8	0.3	-11.5	-7.3	u	-0.2	1.5	-1.0
18	O=c1oc(CCO)cc2ccc(-c3ccc4[nH]ccc4c3)cc12	-8.9	-3.8	x	15.9	x	x	-1.0	-0.6
19	COC(=O)c1cc(S(=O)(=O)N2CCN(c3ccccc3F)CC2)c[nH]1	-3.3	-0.9	4.0	-3.1	2.4	-17.8	3.4	2.8
20	N#CC1=C(N)N(c2ccc(Oc3ccccc3)cc2)C(=O)C1	6.6	1.0	-6.9	-12.5	-2.4	-14.0	-1.8	-0.2
21	O=C(CSc1nnc(Cc2cccs2)n1C1CCCCC1)N1CCCc2ccccc21	x	2.7	1.5	-0.1	5.4	8.8	2.3	1.2
22	CCCC1=Nc2cc(C(=O)N3CCCC3)ccc2Sc2ccc(C)cc21	0.6	2.2	-3.7	18.9	-1.8	26.1	-6.0	-1.2
23	CCn1c(CN2CCOCC2)nnc1SCC(=O)Nc1ccc(C)cc1	-8.6	0.7	0.1	-7.6	0.5	-7.3	-0.2	0.4
24	CC(Oc1ccc(C(=O)c2ccccc2)cc1)C(=O)N1CCOCC1 (stereo not given)	3.2	1.3	1.2	-0.5	1.1	-4.2	0.2	5.3
25	COc1ccc(NC(=O)CSc2nnc(N)s2)cc1	0.3	-0.1	-3.0	-5.5	u	-13.1	-3.2	3.8
26	Brc1cc2c(cc1/C=N/Nc1nc3ccccc3s1)OCO2	21.9	0.1	0.8	-4.8	0.4	-0.8	-2.6	x
27	COc1ccc(C(=O)C(OC(=O)c2ccccc2)c2ccccc2)cc1 (stereo not given)	-1.1	-0.4	2.4	1.7	1.5	24.1	0.9	2.1
28	N#CCSc1ccccc1NC(=O)COC(=O)CCN1C(=O)C2CC=CCC2C1=O (stereo not given)	0.0	0.4	x	9.8	x	x	-1.5	-0.6
29	CCCOC(=O)c1ccc(NC(=O)CN(C)Cc2cccs2)cc1	0.3	0.0	-3.7	2.1	-1.9	4.8	-1.6	1.5
30	CCCc1cc(=O)oc2c(C)c(OC(C)C(=O)NCC(O)c3ccccc3)ccc12 (stereo not given)	0.1	2.0	-0.3	-3.3	1.8	-21.8	-2.3	-27.6
31	O=C(O)COc1ccccc1/C=N/NC(=O)CSc1nc2ccccc2n1Cc1ccccc1Cl	14.9	0.6	-2.2	-0.4	-0.8	21.4	-1.4	x
32	C=C1CCC2C(C)(C)[C@H](O)CC[C@@]2(C)[C@@H]1COc1cc(=O)oc2ccccc12 (stereo not given in full)	-2.2	0.3	7.9	-3.8	13.6	35.7	-9.4	0.8
33	Cc1onc(-c2ccccc2)c1C(=O)n1nnc2ccccc21	-3.9	-0.3	4.8	30.5	-0.4	-17.6	3.3	4.8
34	O=C1COc2ccc(S(=O)(=O)N3CCCCC3)cc2N1	x	x	4.2	-2.4	1.0	-4.3	x	0.2
35	CC(OC(=O)c1cc(=O)[nH]c2ccccc12)C(=O)NC1CCCC1 (stereo not given)	-3.5	-2.4	x	-9.3	x	x	15.6	-29.1
36	CCC(c1nnc(SCC(=O)NCCc2ccc(Cl)cc2Cl)o1)N(C)C (stereo not given)	-7.5	0.8	2.7	-0.6	1.5	8.9	2.4	-1.4
37	O=C(c1ccccc1)N1CCN(C(=O)c2cc3nc(-c4ccccc4)cc(C(F)(F)F)n3n2)CC1	-2.7	2.6	9.6	-5.1	4.2	-14.6	-6.2	-6.4
38	CCOCCCNC(=S)N(Cc1ccccc1)Cc1nc2ccccc2c(=O)[nH]1	12.6	-0.3	-1.0	-25.6	-3.5	-10.8	3.8	-40.8
39	CCN(C(=O)COC(=O)c1ccccc1NCCO)c1cccc2ccccc12	-8.9	1.1	-8.0	-2.8	0.5	23.6	x	-476.0
40	CCOc1ccc(OCC)c(NC(=O)CSc2nnnn2CC)c1	-3.6	-0.7	-5.5	0.2	-1.0	2.3	1.4	1.9
41	CCOC(=O)CC(=O)Nc1nnc(C(C)C)s1	-6.7	0.8	15.0	-1.8	-4.7	3.6	-0.2	2.2
42	CC(c1ccco1)N(C(=O)c1cc(Cl)cc(Cl)c1)c1ccccn1 (stereo not given)	-3.0	0.5	-5.2	-4.5	0.2	11.5	1.3	7.7
43	Cc1ccccc1N1C(=O)C2ON(c3ccccc3)C(c3cccnc3)C2C1=O (stereo not given)	-4.9	-0.4	-4.2	-1.3	u	3.3	-2.1	5.9
44	O=C(COC(=O)c1cc(-c2ccco2)nc2ccccc12)NCc1ccc2c(c1)OCO2	-4.0	1.0	-1.3	-8.4	1.8	6.5	0.3	-19.5
45	COC(=O)[C@]1(Cc2ccccc2)N[C@H](CN(C)C(=O)Nc2ccc(C(F)(F)F)cc2)[C@@H]2C(=O)N(Cc3ccccc3)C(=O)[C@@H]21	6.5	1.0	x	1.9	x	x	-0.1	3.6
46	Cc1cnc(C(=O)OCC(=O)Nc2sc3c(c2C#N)CCC3)cn1	0.0	-0.5	5.1	8.2	2.1	-8.9	3.0	2.5
47	O=C(COC(=O)Cc1ccc(Br)cc1)NC1CCCCCC1	-3.6	-0.6	-15.5	-4.0	2.9	-1.1	-3.0	1.6
48	CN1CCN(S(=O)(=O)c2ccc(N3CCN(S(=O)(=O)c4cccs4)CC3)nc2)CC1	-8.4	0.6	x	6.1	x	x	-7.3	1.9
49	Oc1cccc(Nc2nc(NCC3CCCO3)c3ccccc3n2)c1 (stereo not given)	x	0.1	21.3	6.9	-2.2	52.4	4.9	-13.1
50	COc1ccc(NC(=O)c2cccc(-n3c(C)ccc3C)c2)c(OC)c1	-8.8	0.3	6.5	-6.4	-1.0	-2.4	-2.2	1.9
51	Cc1ccc(C(=O)COC(=O)C2CC(=O)N(c3nc(-c4ccccc4)cs3)C2)cc1C (stereo not given)	-13.6	0.9	-16.1	1.5	-0.3	4.0	-0.9	4.1
52	Cn1c(CNS(=O)(=O)c2ccc(Br)cc2)n[nH]c1=S	-3.9	0.9	-3.3	0.8	-1.9	-21.5	-1.2	0.0
53	CC(C)c1cccc(C(C)C)c1NC(=O)COC(=O)c1ccc2c(c1)S(=O)(=O)c1ccccc1C2=O	x	0.0	-3.2	3.4	1.8	-7.9	-0.8	3.5
54	CCN(CC)CCC(c1ccc(N(C)C)cc1)c1c(OC)cc(OC)c2ccc(=O)oc12 (stereo not given)	2.7	-0.3	-10.8	0.1	0.4	15.2	-9.5	1.3
55	COc1ccc(OC)c(CN2CCC(Cc3ccccc3)CC2)c1	7.4	0.6	-1.6	5.3	1.1	29.2	-3.6	2.8
56	COc1ccccc1NC(=O)Nc1ccccc1C#N	-3.1	0.7	-2.4	-5.1	5.3	9.5	-2.9	-70.5
57	Nn1c(SCc2nc3ccccc3[nH]2)nnc1-c1cccnc1	-8.1	0.9	9.3	9.9	1.0	-11.0	-6.9	0.8
58	O=C(Nc1cc([N+](=O)[O-])ccc1N1CCCC1)c1cccs1	-3.7	-0.1	-10.2	-3.9	3.3	-0.8	1.9	12.8
59	O=C(O)CC(CC(=O)Nc1ccc(C(=O)O)cc1)c1ccccc1 (stereo not given)	-3.3	1.8	-1.9	-2.4	-1.9	-2.1	-0.9	5.9
60	CCC(=O)NC(c1ccccc1Cl)c1c(O)ccc2ccccc12 (stereo not given)	-8.0	0.0	13.3	-3.0	1.0	12.8	4.6	-8.8

# (further entries)
no.	canonical_smiles	Beta cell apopt	A1 inh	Calb FLC	Beta2AR agonist	RanGTP-Impb inh	T cruzi inh	LANA-H2B inh	UCH37 DUB inh
61	CCOc1ccc(CCNC(=O)COC(=O)CNS(=O)(=O)c2ccc(NC(C)=O)cc2)cc1OCC	-1.6	-0.8	-8.6	2.7	u	-0.2	1.9	1.3
62	CCN(CC)CCN1C(=O)C(=O)/C(=C(/O)c2c(C)[nH]c(C(=O)OC)c2C)C1c1ccco1 (stereo not given)	-3.8	0.4	11.9	5.5	1.5	-8.6	-0.8	14.0
63	COc1ccc2nc3oc(C(=O)NCCCOC(C)C)cc3cc2c1	-2.1	0.7	-1.6	-4.3	-0.7	12.9	-1.3	-453.2
64	O=C(COc1ccccc1)NCc1n[nH]c(=S)n1-c1ccccc1	-6.2	0.8	6.0	5.9	0.4	-9.5	0.7	0.7
65	COc1cc(N)c(Cl)cc1C(=O)OCC(=O)NC1CCCC1	4.3	-0.5	6.6	3.5	5.7	6.4	-5.1	1.8
66	COc1ccc(C(=O)Cc2ccc(OC)c(OC)c2)cc1	x	-5.7	-2.1	2.4	-2.9	0.0	-5.9	0.1
